Screens from PubChem.
miR-21 reporter = qHTS Assay for Modulators of miRNAs and/orActivators of miR-21; HeLa miR-21 FLuc reporter, luciferase, 48 h; Potency, µM (doses to about 38.3 µM), for the others: at the top dose reporter change, positive = more light; 340,000 tested, under 10 active; AID 2288, 2010; active = well fitted rising curve with a large enough effect; inconclusive = small, poorly fitted or top-dose-only effect; inactive = no such curve, though single readings can be large or run the other way;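 note: % of control where 0% means no effect; miR-21 action dims this reporter so a rising signal means less miR-21 action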
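Using DMEM plus 10% FBS, HeLa miR-21-FLuc cells are incubated with test compounds (final up to about 40uM) for 48 hours; firefly luciferase signal is then imaged following reagent-mediated lysis.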
Rango dissoc inh = qHTS Assay for Inhibitors of RanGTP induced Rango (Ran-regulated importin-beta cargo) - Importin beta complex dissociation | AID 540253, 2011 | hit rate 0.071% among 340,000 | Snurportin-1 (Homo sapiens) + GTP-binding nuclear protein Ran (Homo sapiens) + Importin … | Biochemical FRET Rango-importin beta, RanGTP-induced dissociation | Potency, µM (titrated, usually from 46.1 µM), inactives show top-dose activity change, negative = inhibition; active means falling FRET ratio curve, often poorly fitted, with flat reads before Ran was added; inconclusive means other falling curves, or compound fluorescence or quenching; inactive means flat or rising ratio curve;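 note: potency is the fitted concentration of half-maximal effect; % of control where 0% means no effect; nearly all actives have a fitted effect of over 45% in size; -100% = wells without RanGTP and RCC1; the record marks most hits as doubtful in a second field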
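Rango FRET biosensor (snurportin-1 IBB flanked by N-terminal EYFP and C-terminal CFP10) at 0.1 uM, with 0.25 uM importin beta in PBS, 1mM DTT, 0.02% Tween-20, 0.1% BSA. 0.6 uM Ran, 2mM GTP and 0.2 uM RCC1 were then added for 45 min at room temperature. Inhibition read as loss of FRET rise.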
GLA inh pH 4.5 = qHTS Assay for Inhibitors of Human alpha-Galactosidase at pH 4.5. activity change, negative = inhibition, % at 105 µM. purified enzyme, 4-MU-alpha-Gal fluorescence, pH 4.5. 230,000 tested, under 10 active. Alpha-galactosidase A (Homo sapiens), P06280; inconclusive = small, poorly fitted or top-dose-only inhibition, or a rising curve; inactive = flat fitted curve, though single readings scatter; no compound was filed as active;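 note: 0% = full activity with enzyme and -100% = basal without enzyme; dose as in the result columns while the protocol names 77 µM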
Target sequence (P06280 whole entry, looked up): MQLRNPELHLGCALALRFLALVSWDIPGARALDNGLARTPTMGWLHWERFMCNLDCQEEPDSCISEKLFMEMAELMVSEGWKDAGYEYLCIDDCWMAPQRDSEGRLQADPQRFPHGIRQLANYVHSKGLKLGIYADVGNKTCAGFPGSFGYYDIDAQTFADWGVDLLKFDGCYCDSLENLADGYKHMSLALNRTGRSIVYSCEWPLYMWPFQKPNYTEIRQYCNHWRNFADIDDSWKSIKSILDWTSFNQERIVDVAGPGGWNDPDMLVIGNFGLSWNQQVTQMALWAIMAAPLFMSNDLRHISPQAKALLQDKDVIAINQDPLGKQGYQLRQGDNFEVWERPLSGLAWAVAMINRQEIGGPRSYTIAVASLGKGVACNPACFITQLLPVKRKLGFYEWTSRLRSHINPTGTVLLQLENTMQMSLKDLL
Rango complex inh = qHTS Assay for Inhibitors of Rango (Ran-regulated importin-beta cargo) - Importin beta complex formation; Importin subunit beta-1 (Homo sapiens), Q14974; Rango CFP/YFP FRET sensor + importin beta, 45 min; Potency, µM (titrated, usually from 92.2 µM), without a hit: at the highest dose inhibition of complex formation; hit rate 0.031% among 340,000; active = rising FRET ratio curve, often small or poorly fitted; inconclusive = mostly compound fluorescence or quenching in the first reads; inactive = flat curves in all reads;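 note: potency is the fitted concentration of half-maximal effect; 0% = DMSO wells and 100% = buffer wells lacking importin beta; nearly all actives have a fitted effect of over 15% in size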
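FRET biosensor (snurportin 1 IBB flanked by EYFP and cerulean), 50 nM, with compound 5 min, then 0.125 microM importin beta in PBS, 1 mM DTT, 0.02% Tween-20, 0.1% BSA. CFP/YFP ratio read after 45 min at room temperature; pre-read flags interference.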
Active calls of the source: *; ? = inconclusive; . = no result given; & = joins results of further samples. The list is partial; rates above refer to the full screens.

SMILES,miR-21 reporter,Rango dissoc inh,GLA inh pH 4.5,Rango complex inh
CCOc1ccccc1CN1CCNC(=O)C1CC(=O)N(C)CCC1CCOCC1 (stereo not drawn),0%,?,.,-0.1%
O=C1C=C(c2ccc(F)cc2OCc2ccccc2)C[C@@H](c2ccc3c(c2)OCO3)C1,.,-24%,.,-0.1%
O=C1CC(SC(=NCc2ccc3c(c2)OCO3)Nc2ccccc2)C(=O)N1c1ccccc1 (stereo not drawn),1%,28%,1,-1.8%
CC(=O)c1c(O)cc(O)cc1CC(=O)O,-2%,-8%,-7,3.4%
O=c1cc[nH]c2c1ccc1cccnc12,.,1%,.,-0.7%
C#CCn1c(-c2ccccc2)ccc(C#N)c1=O,-14%,14%,0,-1.7%
Cn1c(=O)n(CC(=O)NCc2cccnc2)c2ccccc21,-8%,-7%,4,2.3%
Cc1ccc(C)c(SCC(=O)OCC(=O)N2CC(C)OC(C)C2)c1 (stereo not drawn),-1%,-8%,8,-1.9%
COc1ccc(C(=O)NC(=O)N2CCCCC2)cc1,-9%,8%,0,0.3%
O=C(O)[C@@H]1CCCN(S(=O)(=O)c2cccc3cccnc23)C1,.,-10%,.,-2.8%
COC(=O)c1sccc1NC(=O)Nc1cccc(C)c1C,2%,-12%,.,-6.8%
CC(C)C(=O)N1CCN(c2nc(-c3ccc(Cl)cc3)cs2)CC1,2%,0%,5,2.1%
CCOc1ccc(CN(C)C(=O)CCc2ccc(S(=O)(=O)N3CCCCCC3)cc2)cc1,.,-1%,.,2.4%
O=C(c1ccc(S(=O)(=O)NCc2ccco2)cc1)N1CCCC1,5%,1%,0,-1.0%
Cc1cc(C)c2cc(CN(CCO)Cc3nnnn3Cc3ccc(F)cc3)c(=O)[nH]c2c1,-4%,27%,-2,?
O=C(COC(=O)c1ccc2ncsc2c1)NCc1cccc(Cl)c1,.,3%,.,-1.9%
O=C(CSc1nc2cc(S(=O)(=O)N3CCOCC3)ccc2o1)Nc1c(F)cccc1F,1%,9%,3,1.3%
COc1ccc(N(CC(=O)Nc2ccc3c(c2)OCO3)S(=O)(=O)c2ccc(C)cc2)cc1OC,-4%,-5%,3,-6.6%
Cn1c(=O)c2c(nc(SCC(=O)NCc3ccco3)n2C)n(C)c1=O,0%,11%,-23,-1.0%
O=C(O)c1cccc(NS(=O)(=O)c2ccc3nnn(O)c3c2)c1,-5%,-4%,-3,1.0%
CC(C)(C)c1ccc(-c2nc(C#N)c(NCc3ccncc3)o2)cc1,-61%,14%,-2,-0.7%
CCCCc1ccc(NC(=O)N[C@H](C(=O)O)C(C)C)cc1,-14%,9%,1,2.1%
Cc1ccc(C(=O)N/C(=C\c2ccc(F)cc2)C(=O)NCCN2CCOCC2)cc1,0%,-19%,.,1.1%
CC(C)(C)NC(=O)CSc1ncccc1-c1nc2ccccc2[nH]1,-13%,-21%,.,-3.7%
Cc1ccccc1NC(=O)c1ccccc1O,-4%,-3%,-6,0.9%
CCCOc1ccc(Cc2c(O)nc(SC)[nH]c2=O)cc1C,0%,17%,.,?
OCC[n+]1ccc(/C=C/c2c[nH]c3ccccc23)cc1,16%,?,-5,?
O=C(COC(=O)c1ccc(F)cc1F)Nc1cccnc1Cl,.,8%,.,-0.3%
O=[N+]([O-])c1cccc(-c2csc(CS(=O)(=O)Cc3ccco3)n2)c1,-10%,18%,-2,-0.9%
O=P(COCCCCCOCP(=O)(c1ccccc1)c1ccccc1)(c1ccccc1)c1ccccc1,24%,3%,2,-0.7%
CCSc1cc(C2C(C(=O)OC)=C(C)NC3=C2C(=O)CCC3)c(C)o1 (stereo not drawn),0%,-4%,-6,0.1%
Cc1cc(/C=N/NC(=O)C(=O)N2CCCC2)c(C)n1-c1cccc(Br)c1,-11%,-5%,-1,1.3%
COc1ccc(C2=Nn3c(nnc3-c3ccccn3)SC2)cc1,9%,6%,0,-0.2%
COc1cc(OC)c(C2Nc3ccccc3NC3=C2C(=O)CC(C)(C)C3)cc1OC (stereo not drawn),-1%,-23%,.,?
Cc1ccccc1SC1CCN(Cc2nc(C3CC3)no2)CC1,-14%,-11%,3,-0.6%
O=C(OCC1CCNCC1)c1ccc(F)cc1,.,10%,.,0.9%
CCCOc1ccc2ccccc2c1/C=N/n1cnnc1,-14%,1%,-2,-5.2%
Cc1cc(C)cc(OCC(=O)Nc2ccc(S(=O)(=O)Nc3ccccn3)cc2)c1,-4%,-6%,-9,-0.6%
COc1cc(S(=O)(=O)N2CCN(c3ccccc3)CC2)ccc1Cl,-5%,1%,2,-5.3%
COc1cccc(NC(=O)CC2SC(=Nc3ccccc3)NC2=O)c1 (stereo not drawn),0%,-8%,2,5.6%
O=c1ccc2cc3ccoc3cc2o1,-4%,1%,-3,-1.0%
CC(C)C(=O)NC(Nc1cccc([N+](=O)[O-])c1)C(Cl)(Cl)Cl (stereo not drawn),9%,-5%,-22,5.6%
Cc1cc(NC(=O)Cn2c(=O)n(Cc3ccccc3)c(=O)c3ccccc32)no1,-15%,7%,-7,-4.4%
Cc1ccccc1NC(=O)c1c(O)c2cccc3c2n(c1=O)CCC3,-5%,.,-5,.
CN(C)CCP(=O)(c1ccccc1)c1ccccc1,-4%,?,6,-0.8%
Cc1cc(C)cc(-n2c(C)cc(/C=C3\C(=N)N4N=C(CC(C)C)SC4=NC3=O)c2C)c1,-6%,-30%,-17,?
O=C(CCCCCN1C(=O)CCC1=O)Nc1ccc2c(c1)OCCO2,-15%,11%,6,-2.1%
COc1ccc(-c2noc(=O)n2CC(=O)N2CCC(Cc3ccccc3)CC2)cc1,3%,1%,-16,-2.4%
COc1ccc(Br)cc1CNC(=O)CCc1nc(-c2ccccc2F)no1,-2%,-3%,-3,3.6%
COc1ccc(/C=N/NC(=O)NC23CC4CC(CC(C4)C2)C3)c(OC)c1,1%,3%,.,4.2%
COCc1cc(=O)n2[nH]c(-c3ccsc3-n3c(C)ccc3C)cc2n1,0%,-17%,-1,-2.0%
CCCn1cc(S(=O)(=O)c2ccccc2)c(=O)c2cc(OC)c(OC)cc21,-2%,7%,.,-1.7%
COC(=O)c1ccccc1NS(=O)(=O)c1ccc(F)cc1,-6%,-12%,7,-4.4%
COc1ccc(-c2nnc3sc(-c4cccs4)nn23)cc1OC,-28%,3%,-3,8.3%
O=C(NC1CCCCC1)C(c1ccc2ncccc2c1)N(Cc1ccc2c(c1)OCO2)C(=O)c1cccs1 (stereo not drawn),-11%,17%,-1,-3.2%
CCCN(CCC)CCCNC(=S)Nc1ccc2nc(N3CCCC3)cc(C)c2c1,-2%,8%,-10,-5.0%
O=C(O)/C(=C/c1ccco1)c1ccccc1,3%,.,6,.
Cc1cc(NC(=O)CCS(=O)(=O)c2ccc(F)cc2)no1,.,0%,.,-0.1%
S=C(NCc1cccnc1)Nc1ccc(Oc2ccc(Cl)cc2)cc1,?,20%,-6,-2.7%
O=C(CSc1ncc(-c2ccccc2)[nH]1)Nc1ccccc1F,-50%,-18%,0,-0.3%

Later entries.
SMILES,miR-21 reporter,Rango dissoc inh,GLA inh pH 4.5,Rango complex inh
CN(C)CC/C=C1\c2ccccc2Sc2cc(F)c(Cl)cc21,.,-7%,.,-0.2%
Cc1ccc(S(=O)(=O)NC(=O)COc2ccccc2C(N)=O)cc1,-6%,5%,-26,1.5%
Cc1cccc2cc(/C=N/NC(=O)[C@H]3C[C@@H]3c3ccccc3)c(Cl)nc12,-5%,-10%,18,6.2%
COCCCNC(=O)c1ccc2nc(Cc3ccc(OC)cc3)oc2c1,-61%&-17%,15%,.,4.4%
COCCCC1CCN(C(=O)CCc2nnc(CCCCc3ccccc3)o2)CC1,4%,20%,1,1.6%
COc1ccc(NC(=O)c2cnc(SCC(=O)NCCc3ccccc3)n(C)c2=O)cc1,.,0%,.,-0.5%
COc1ccccc1N(CC(=O)NCc1ccc(F)cc1)C(=O)CCC(=O)Nc1nccs1,4%,2%,.,1.1%
Cc1nc(NC(=O)c2ccc(Cl)cc2)sc1-c1csc(Nc2cccc(F)c2)n1,-12%,.,-4,.
CN(CC(=O)NC1CCN(Cc2ccccc2)CC1)S(=O)(=O)c1ccc(Br)s1,9%,-12%,.,0.9%
Cc1ccc(NC(=O)C2CCCN(S(=O)(=O)c3c(C)noc3C)C2)nc1 (stereo not drawn),0%,8%,-4,7.4%
O=C(O)/C=C/c1ccc([N+](=O)[O-])o1,-5%,17%,-8,16%
COc1ccc(CNS(=O)(=O)CCNC(=O)c2ccc3c(c2)OCO3)cc1,.,5%,.,-0.4%
COC(=O)CC/C(O)=C1\C(=O)CC(C)(C)CC1=NCc1nc2ccccc2[nH]1,-1%,-10%,-4,0.9%
O=C(O)c1ccc(-n2c(-c3ccccc3)n[nH]c2=S)cc1,-7%,-9%,4,-1.8%
COc1ccc(NS(=O)(=O)c2cc(NC(=O)/C=C/c3cccs3)ccc2N2CCOCC2)cc1,2%,-1%,2,1.3%
Cc1cccc(C)c1N(CC(=O)Nc1cccc(N(C)S(C)(=O)=O)c1)S(C)(=O)=O,-2%,-14%,6,-5.8%
CCc1ccccc1NC(=S)N(Cc1ccco1)C(C)c1cccs1 (stereo not drawn),0%,55%,8,4.1%
CCS(=O)(=O)NCCc1csc(-c2ccc(OC)c(OC)c2)n1,-4%,15%,3,0.2%
CC(=O)Nc1ccc(C(=O)N/N=C/c2ccncc2)cc1,6%,2%,-1,6.2%
O=C(Cn1cnc2ccccc2c1=O)N1CCN(S(=O)(=O)c2ccc(F)cc2)CC1,.,0%,.,-0.2%
Cc1ccc2c(c1)C1CN(C)CCC1N2C(=O)c1cccc(S(=O)(=O)N2CC(C)CC(C)C2)c1 (stereo not drawn),-6%,0%,-4,0.6%
N#C/C(=C\c1ccc(-c2cccc(C(F)(F)F)c2)o1)C(=O)Nn1cnnc1,-9%,0%,-9,3.8%
CCCC(c1nnnn1C1CCCC1)N1CCN(c2ccccc2F)CC1 (stereo not drawn),-8%,21%,0,-1.8%
COc1ccc(C2(C(=O)NCCCN(C)C)CCOCC2)cc1,-5%,1%,-4,-2.7%
CCOC(=O)c1c(NC(=O)COc2ccccc2OCC)sc2c1CC(C)(C)NC2(C)C,.,-26%,.,1.1%
O=C(COC(=O)C1CSC2(c3ccc(F)cc3)CCC(=O)N12)NC(=O)NC1CCCC1 (stereo not drawn),-3%,-11%,1,0.1%
Cc1cccc(C(=O)NNC(=O)/C=C/C(=O)O)c1,-20%,11%,-6,?
CCN(C(=O)COC(=O)c1c(C)c(-c2ccccc2)nc2ccccc12)C1CCS(=O)(=O)C1 (stereo not drawn),-25%,13%,6,-6.0%
Cc1c(NC(=S)NC(NC(=O)C(C)C)C(Cl)(Cl)Cl)c(=O)n(-c2ccccc2)n1C (stereo not drawn),-7%,-15%,-12,-0.9%
COc1cccc(-n2c(O)c(C=NCc3ccccn3)c3ccccc3c2=O)c1,-1%,5%,-25,1.2%

Entries of single compounds as entered above. Order of values: miR-21 reporter, Rango dissoc inh, GLA inh pH 4.5, Rango complex inh
`COc1ccccc1N(CC(=O)NCc1ccc(F)cc1)C(=O)CCC(=O)Nc1nccs1` across the screens: 4%, 2%, ., 1.1%
`O=C(COC(=O)c1ccc(F)cc1F)Nc1cccnc1Cl` across the screens: ., 8%, ., -0.3%
